EPAC2 ant val = validation of human EPAC2 antagonists; Q8WZA2; EPAC2 Rap1B BODIPY-GDP exchange, fluorescence; Potency, µM (series often up to 112 µM), without a hit: at the highest dose activity, negative = inhibition, actives largely listed as inhibitors; 16,000 compounds, 1.7% hits; active = well fitted inhibition curve with a large enough effect; inconclusive = small, poorly fitted or top-dose-only effect; inactive = no such curve, though single readings can be large or run the other way;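 note: 100% = activation by cAMP agonist control; nearly all actives have a fitted effect of over 40% in size; the record reuses the description of the EPAC1 agonist screen; inactives centre near -10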
Target sequence (Q8WZA2 whole entry, looked up): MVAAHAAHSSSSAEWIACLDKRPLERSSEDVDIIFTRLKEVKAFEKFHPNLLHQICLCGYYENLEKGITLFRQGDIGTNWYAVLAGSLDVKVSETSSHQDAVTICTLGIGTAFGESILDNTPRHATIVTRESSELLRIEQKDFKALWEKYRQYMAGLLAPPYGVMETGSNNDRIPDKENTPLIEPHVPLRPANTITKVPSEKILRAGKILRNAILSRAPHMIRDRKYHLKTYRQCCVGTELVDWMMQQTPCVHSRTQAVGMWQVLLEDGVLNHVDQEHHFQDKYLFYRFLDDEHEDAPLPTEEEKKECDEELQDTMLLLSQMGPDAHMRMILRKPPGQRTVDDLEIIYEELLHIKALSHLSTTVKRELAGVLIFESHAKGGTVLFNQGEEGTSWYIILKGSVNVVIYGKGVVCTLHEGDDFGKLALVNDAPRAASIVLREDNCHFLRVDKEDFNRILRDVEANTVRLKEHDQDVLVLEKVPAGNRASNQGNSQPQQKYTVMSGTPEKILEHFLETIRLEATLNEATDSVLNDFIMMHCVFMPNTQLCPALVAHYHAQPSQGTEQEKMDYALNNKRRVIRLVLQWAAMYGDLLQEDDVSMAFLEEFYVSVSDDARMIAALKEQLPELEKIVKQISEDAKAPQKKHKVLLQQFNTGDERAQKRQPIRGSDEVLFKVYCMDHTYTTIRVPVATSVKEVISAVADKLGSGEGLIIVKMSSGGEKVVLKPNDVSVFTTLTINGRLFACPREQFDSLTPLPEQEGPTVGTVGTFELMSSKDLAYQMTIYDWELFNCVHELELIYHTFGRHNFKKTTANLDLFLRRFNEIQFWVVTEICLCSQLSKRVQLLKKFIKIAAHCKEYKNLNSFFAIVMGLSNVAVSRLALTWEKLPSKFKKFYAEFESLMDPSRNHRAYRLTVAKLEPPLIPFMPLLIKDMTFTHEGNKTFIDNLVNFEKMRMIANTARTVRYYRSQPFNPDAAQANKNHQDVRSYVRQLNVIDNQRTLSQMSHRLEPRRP
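Fluorescent exchange read-out: 100 nM EPAC2 with 250 nM RAP1B–BODIPY-GDP and 50 uM GDP; BODIPY-GDP release lowers fluorescence. Read at 480/540 nm every 5 min for 30 min at room temperature; normalized to 6.5 mM cAMP.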
* = called active by the depositor; u = inconclusive; & = joins results of further samples; ! = repeats disagree; [ ] = dose if it differs, or a comment. Potency is the fitted concentration of half-maximal effect.

SMILES	EPAC2 ant val
CCCSc1ccc2nc(NC(=O)OC)[nH]c2c1	u
CC(C)(Oc1ccc(C2CCCc3ccccc32)cc1)C(=O)O (stereo not given)	-22.4%
Cc1cc(N)c2ccccc2[n+]1CCCCCCCCCC[n+]1c(C)cc(N)c2ccccc21	-2.6%
CCCCC/C=C\C\C=C/C=C/C=C/[C@@H](SC[C@H](N)C(=O)NCC(=O)O)[C@@H](O)CCCC(=O)O	-18.7%[1.17 µM]
O=C(c1ccncc1)N1CCC[C@@]2(CCN(c3cccc(-c4ccccc4)c3)C2)C1	u
Cc1ncc2c(c1CNS(=O)(=O)N(C)C)CCN(C(=O)c1ccc(-c3ccc(F)cc3)cc1)C2	u
COc1ccc2[nH]cc(CCNc3ccnc(-c4ccccc4Cl)n3)c2c1	u
Cc1cnc(SCc2ccccn2)nc1C1CCCN(Cc2ccsc2)C1 (stereo not given)	-4.3%
COc1cc(CN2CCCC(n3cc(C(=O)N4CCCCC4)nn3)C2)cc(OC)c1OC (stereo not given)	3.2%
O=c1c(CCc2ccccc2)nc2cnc(N3CCNCC3)nc2n1C1CC1	11.3%
C[N+]1(C)CCCC(OC(=O)C(O)(c2ccccc2)c2ccccc2)C1 (stereo not given)	-4.0%
O=[N+]([O-])c1nccn1CO[C@@H](CO)[C@H](O)CO	-19.7%
COc1cccc(Cn2c(=O)c(-c3cccs3)nc3cnc(N4CCOCC4)nc32)c1	-14.7%
CCC1CN(CCNC(=O)c2ccnc(Cl)c2)Cc2cc(OC)ccc2O1 (stereo not given)	-2.8%
Cc1nc2sccn2c(=O)c1CCN1CCC(=C(c2ccc(F)cc2)c2ccc(F)cc2)CC1	50.1µM*!
CC(C)C[C@@H](CN=[N+]=[N-])N1CCN(C)CCC1=O	u
Cn1c(=O)c2[nH]c(-c3ccc(S(=O)(=O)O)cc3)nc2n(C)c1=O	-5.2%&-9.1%
CN1CCCc2cc(/C=C/c3ccnc4ccccc34)ccc21	148.4%[activator]
COc1cccc(Nc2ncc3nc(-c4ccc(Cl)cc4)c(=O)n(C4CC4)c3n2)c1	14.9%
CCCCC/C=C\CCC(=O)N[C@H]1[C@H](Oc2c3cc4cc2Oc2ccc(cc2Cl)[C@@H](O[C@@H]2O[C@H](CO)[C@@H](O)[C@H](O)[C@H]2NC(C)=O)[C@@H]2NC(=O)[C@H](NC(=O)[C@@H]4NC(=O)[C@H]4NC(=O)[C@@H](Cc5ccc(c(Cl)c5)O3)NC(=O)[C@H](N)c3ccc(O)c(c3)Oc3cc(O)cc4c3)c3ccc(O)c(c3)-c3c(O[C@H]4O[C@H](CO)[C@@H](O)[C@H](O)[C@@H]4O)cc(O)cc3[C@@H](C(=O)O)NC2=O)O[C@H](CO)[C@@H](O)[C@@H]1O	35.2%[activator]
N[C@H](C(=O)O)c1nn[nH]n1	-23.2%
C=CC(N)CCC(=O)O (stereo not given)	4.1%&-10.3%&-1.9%
CCOc1ccc(N=C(C)Nc2ccc(OCC)cc2)cc1	15.2%
COc1cc(CN2CCCC(c3nc(-c4ccncc4)ncc3-c3ccccc3)C2)ccc1O (stereo not given)	5.7%
CC[N+](CC)(CC)CCOc1ccc(/C=C/c2ccccc2)cc1	-2.9%&-9.7%

(next part)
SMILES	EPAC2 ant val
CC/C(=C(/CC)c1ccc(OP(=O)(O)O)cc1)c1ccc(OP(=O)(O)O)cc1	12.9%
COc1ccc(-c2cc(=O)c3c(O)c(OC)c(O[C@@H]4OC(COC5OC(C)C(O)C(O)[C@@H]5O)C(O)C(O)C4O)cc3o2)cc1 (stereo not given in full)	-5.1%
c1ccc2cc(C3=NCCN3)ccc2c1	27.3%
CN(C)C(=O)c1ccc(-c2nc(-n3ccnc3)c3ccccc3n2)cc1	-24.6%
Cn1cc(-c2nc3cnc(OCc4ccccc4)nc3n(CCC#N)c2=O)c2ccccc21	4.5%
CCCCCCCCCCCCCCCC(=O)OCC(COC(=O)CCCCCCCCCCCCCCC)OC(=O)CCCCCCCCCCCCCCC	15.7%
CCn1c(-c2ccccc2F)nc2cc(NC(C)=O)cc(C(=O)N3CCCCC3c3nccn3C)c21 (stereo not given)	-10.4%
O=c1ccn([C@@H]2O[C@H](COP(=O)(O)OP(=O)(O)O)[C@@H](O)[C@H]2O)c(=O)[nH]1	-12.6%&7.2%
CC(=O)OCC(=O)[C@@]1(O)CC[C@H]2[C@@H]3CCC4=CC(=O)C=C[C@]4(C)[C@H]3[C@@H](O)C[C@@]21C	3.5%
c1ccc2c(-n3ccnc3)nc(-c3ccoc3)nc2c1	-17.5%
COc1cccc(-c2cncnc2NCc2ccc(OC)cc2OC)c1	44.7µM*
CCCN1CCC(=O)N([C@H](COc2ccccc2)c2ccccc2)CC1	u
Cc1noc(C)c1C(=O)N1CCC[C@@]2(CCN(C(=O)Nc3cccc(C#N)c3)C2)C1	-19.1%
CN(C)c1nc2cc3c(cc2cc1CN(CC1CCCO1)C(=O)/C=C/c1cccs1)OCO3 (stereo not given)	u
O=S1(=O)CCOCCCN1Cc1cccc(Cl)c1	u
COc1c(CC(=O)c2cc3c(cc2O)OC(C)(C)C(O)C3)ccc2c1C=CC(C)(C)O2 (stereo not given)	u
COc1ccc2cc1Oc1ccc(cc1)CC1c3cc(c(OC)cc3CCN1C)Oc1c(OC)c(OC)cc3c1C(C2)N(C)CC3 (stereo not given)	-31.6%
CN(C)C(=O)c1ccc(-c2cncnc2Nc2ccccc2)cc1	-12.3%
CNC[C@H](O)c1cccc(O)c1	-1.0%&-16.2%
CC(C)=CC1C(C(=O)O)C1(C)C (stereo not given)	-11.1%
CC[C@H]1NC(=O)[C@@H](NC(=O)c2ncccc2O)[C@@H](C)OC(=O)[C@H](c2ccccc2)NC(=O)[C@@H]2CC(=O)CCN2C(=O)[C@H](Cc2ccccc2)N(C)C(=O)[C@@H]2CCCN2C1=O	11.5%
COc1cccc(Cn2c(=O)cnc3cnc(N4CCN(C)CC4)nc32)c1	-14.4%
CCC1(c2ccccc2)C(=O)NCNC1=O	5.4%&-12.1%&-19.5%&-2.8%
CC(=O)SC1CC2=CC(=O)CC[C@@]2(C)C2CC[C@@]3(C)[C@@H](CC[C@@]34CCC(=O)O4)C12 (stereo not given in full)	-14.4%
COCCNc1ccnc(-c2cccc(NS(C)(=O)=O)c2)n1	-3.7%

Going on with the list:
SMILES	EPAC2 ant val
O=C1CCCCN1CCC(=O)N1CCOc2ccc(C(O)C3CCCCC3)cc2C1 (stereo not given)	u
Cc1cc(C(=O)NCc2nc(-c3cccc(NC(=O)c4ccccc4)c3)oc2C)nc(C)n1	3.5%
COc1ccc(OC)c(-c2cc(Cl)c3c(c2)CC(CNC(=O)c2cnn4cccnc24)O3)c1 (stereo not given)	-25.0%
CC(NC(=O)C1CC1)c1nnc2n1CCN(Cc1cccc(F)c1F)CC2 (stereo not given)	-28.4%
COc1ccc(CNc2cc(-c3cccnc3)ncn2)c(OC)c1	-18.4%
CN1CCN(c2ncc3ncc(=O)n(CCC#N)c3n2)CC1	-19.1%
CC(=O)c1ccc(C(=O)N2CCCC(c3nc(SCc4ccccn4)ncc3C)C2)cc1 (stereo not given)	11.6%
CCN1CCCC1CNC(=O)c1cnn(-c2nccc(-c3ccc(C)o3)n2)c1C1CC1 (stereo not given)	-4.9%
O=C(NCC1CCCCN1)c1cc(OCC(F)(F)F)ccc1OCC(F)(F)F (stereo not given)	-4.0%[151 µM]
Cc1nc2cnc(N3CCOCC3)nc2n(Cc2ccc(F)cc2)c1=O	5.6%
O=[N+]([O-])c1ccc(Cn2cc(-c3cccc(C(F)(F)F)c3)nn2)cc1	-16.2%
O=C(Nc1cccc(F)c1)N1CCCC2(CCN(C(=O)c3csnn3)CC2)C1	-20.7%
Cc1cccc(CNc2ccnc(-c3ccccc3CN(C)C)n2)c1	-1.3%
COc1ccc(CCNC(=O)C(=O)c2c[nH]c3ccccc23)cc1	0.3%
Cc1cc(O)cc(O)c1C(=O)O	-7.5%
CCNc1ncc2nc(-c3cc(F)cc(F)c3)c(=O)n(C[C@H]3CCCO3)c2n1	-22.5%
CC(Cc1ccc(O)c(O)c1)C(C)Cc1ccc(O)c(O)c1 (stereo not given)	u
CC(=O)NC[C@H]1CN(c2ccc(N3CCOCC3)c(F)c2)C(=O)O1	-10.2%
Cc1ccc(S[C@@H](CCN2CC[C@H](O)CCC2=O)c2ccccc2)cc1	-27.3%
O=S1(=O)CCOC[C@H](Cc2ccccc2)N1Cc1ccccc1Br	u
CN(C)CC(C)(C)CNC(=O)c1cnn(-c2nccc(-c3ccc4c(c3)OCO4)n2)c1-c1ccco1	-1.5%
C[C@H]1C[C@H]2[C@@H]3CCC4=CC(=O)C=C[C@]4(C)[C@@H]3C(=O)C[C@]2(C)[C@@]1(O)C(=O)CO	-19.3%
COc1ccc(Oc2ncc3ncc(=O)n(C4CC4)c3n2)cc1	1.8%
O=C(c1cnccn1)N1CCC2(CCCN(Cc3ccccc3)C2)CC1	-26.5%
O=C(O)c1cc(NCc2cc(O)ccc2O)ccc1O	-2.8%

Five compounds out of the list, ordered by SMILES length, ascending.
SMILES	EPAC2 ant val
CCC1(c2ccccc2)C(=O)NCNC1=O	5.4%&-12.1%&-19.5%&-2.8%
COCCNc1ccnc(-c2cccc(NS(C)(=O)=O)c2)n1	-3.7%
CC(=O)NC[C@H]1CN(c2ccc(N3CCOCC3)c(F)c2)C(=O)O1	-10.2%
CCN1CCCC1CNC(=O)c1cnn(-c2nccc(-c3ccc(C)o3)n2)c1C1CC1 (stereo not given)	-4.9%
CCCCCCCCCCCCCCCC(=O)OCC(COC(=O)CCCCCCCCCCCCCCC)OC(=O)CCCCCCCCCCCCCCC	15.7%

The main list resumes, starting seven compounds before the break.
SMILES	EPAC2 ant val
Cc1ccc(S[C@@H](CCN2CC[C@H](O)CCC2=O)c2ccccc2)cc1	-27.3%
O=S1(=O)CCOC[C@H](Cc2ccccc2)N1Cc1ccccc1Br	u
CN(C)CC(C)(C)CNC(=O)c1cnn(-c2nccc(-c3ccc4c(c3)OCO4)n2)c1-c1ccco1	-1.5%
C[C@H]1C[C@H]2[C@@H]3CCC4=CC(=O)C=C[C@]4(C)[C@@H]3C(=O)C[C@]2(C)[C@@]1(O)C(=O)CO	-19.3%
COc1ccc(Oc2ncc3ncc(=O)n(C4CC4)c3n2)cc1	1.8%
O=C(c1cnccn1)N1CCC2(CCCN(Cc3ccccc3)C2)CC1	-26.5%
O=C(O)c1cc(NCc2cc(O)ccc2O)ccc1O	-2.8%
CS(=O)(=O)N1CCC2(CCN(C(c3ccccc3)c3ccccc3)CC2)CC1	u
COc1cccc(Cn2c(=O)c(C)nc3cnc(OC)nc32)c1	u
COCC(=O)Nc1cc(C(=O)N2CCN(c3ccccc3)C(=O)C2)cc2nc(-c3ccccc3)n(C)c12	-2.9%
CN1CC(=O)N/C1=N/C(=O)Nc1cccc(Cl)c1	-16.2%&11.0%
O=C1[C@H](Cc2ccccc2)NCCCC[C@H](c2ccc(Cl)cc2)N1Cc1ccccc1	-17.2%
CCCCC/C=C\C/C=C\CCCCCCCCCC(=O)O	-26.6%[11.4 µM]
Fc1ccc([C@H]2CCNCC2COc2ccc3c(c2)OCO3)cc1 (stereo not given in full)	-0.8%
CC1(C)O[C@@H]2C[C@H]3[C@@H]4CCC5=CC(=O)CC[C@]5(C)[C@@]4(F)[C@@H](O)C[C@]3(C)[C@]2(C(=O)CCl)O1	-13.1%[56.6 µM]
C[C@@H]1CN(Cc2ccc3c(c2)CN(Cc2cccn2-c2cccnc2)CCO3)C[C@H](C)O1	0.1%
O=C(NCCc1ccccn1)C1CC12CCN(C(=O)c1c(F)cccc1Cl)CC2 (stereo not given)	-28.8%
c1cc2c(cc1C1CCCCC1)c1c3n2CCN[C@H]3CCC1	u
CS(=O)(=O)OCC(O)C(O)COS(C)(=O)=O (stereo not given)	4.8%
CCNc1ncc2nc(CCc3ccccc3)c(=O)n(C[C@H]3CCCO3)c2n1	-1.8%
O=c1c(-c2ccc(F)c(F)c2)nc2cncnc2n1Cc1ccc(F)cc1	u
O=C(c1csnn1)N1CCC2(CCN(Cc3nccs3)CC2)CC1	-4.5%
Cc1ccc2[nH]nc(C(=O)N3CCOc4ccc(CN5CCc6sccc6C5)cc4C3)c2c1	-22.8%
CC[C@@H]1C(=O)[C@H](Cc2ccccc2)[C@H]2CCCC(=O)N3CC[C@@H]1[C@@H]23	-18.5%
Cc1nc2sccn2c(=O)c1CCN1CCC(=C(c2ccccc2)c2ccc(F)cc2)CC1	u
c1ccc(CNc2ncnc3ccc(-c4cccnc4)cc23)cc1	-9.2%
O=C(Nc1ccc(Cl)c(C(F)(F)F)c1)[C@@H]1CC=C[C@@H]2CCN(Cc3ccccc3)C(=O)[C@@H]21	-28.4%
O=C1OCCN1/N=C/c1ccc([N+](=O)[O-])o1	-0.9%&-36.8%
COC(=O)C1CCCCN1Cc1ccc2c(c1)CN(C(=O)c1ccc(F)cc1)CCO2 (stereo not given)	-12.1%
O=C(O[C@H]1[C@H](Cc2ccccc2)NS(=O)(=O)[C@H]2C[C@@H]3C=C[C@]12O3)c1ccc([N+](=O)[O-])cc1	u
CS(=O)(=O)Nc1cccc(-c2nc(Nc3ccncc3)c3ccccc3n2)c1	-27.1%
C/C=C/c1ccc(OC)cc1	-10.6%&-12.6%

Other records follow:
SMILES	EPAC2 ant val
COc1ccc(-c2nc3cnc(Oc4ccccc4)nc3n(C3CC3)c2=O)cc1	-10.9%
CCc1nc2cc(C(=O)N(C)C3CCOC3)cc(NC(=O)c3ccccc3OC)c2n1C (stereo not given)	-25.0%
COc1ccc(-c2nc3cnc(N4CCOCC4)nc3n(Cc3cccs3)c2=O)cc1	13.7%
O=C(Oc1cccc2cccnc12)c1ccccc1	u
O=C(c1cccc(F)c1)N1CCC2(CCN(Cc3ccncc3)CC2)CC1	-23.7%
Cc1ccc2nc(SCC(=O)NCC3Cc4cc(-c5ncccc5C)ccc4O3)[nH]c2c1 (stereo not given)	u

Compound activity: PubChem BioAssay, National Center for Advancing Translational Sciences (NCATS)

These rows are one share of the data. The share of hits here may be higher or lower than overall.
